ClpP mod = qHTS Assay for Activators of ClpP; ATP-dependent Clp protease proteolytic subunit (Bacillus subtilis (strain 168)), P80244; AID 651965, 2013; Potency, µM (top dose mostly 57.5 µM), without a hit: at the top dose activity change, negative = active; 1.9% of 340,000 active; purified B. subtilis ClpP, FRET peptide cleavage, 20 min; active = well fitted falling curve with a large enough effect; inconclusive = small, poorly fitted or top-dose-only effect; inactive = no such curve, though single readings can be large or run the other way; further: potency means the concentration at half of the fitted maximal effect; the source files actives as falling curves though it sought activators and does not explain the sign; nearly all actives have a fitted effect of over 65% in size; many hits overshoot -100%
Target sequence (P80244 whole entry, looked up): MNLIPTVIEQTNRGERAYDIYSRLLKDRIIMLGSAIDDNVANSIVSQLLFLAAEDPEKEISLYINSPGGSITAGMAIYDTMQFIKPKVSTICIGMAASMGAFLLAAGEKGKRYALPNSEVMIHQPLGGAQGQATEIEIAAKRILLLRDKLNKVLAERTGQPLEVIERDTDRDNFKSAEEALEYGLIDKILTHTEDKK
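Buffer: 100 mM Tris/HCl pH8, 100 mM KCl, 0.05% low protease BSA, 2.5% glycerol, 0.01% Tween-20. ClpP 10 microg/mL final; 20 min RT; delta FRET normalized to ADEP and DMSO controls.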
Menin MLL FP FL = qHTS Assay for Inhibitors Targeting the Menin-MLL Interaction in MLL Related Leukemias: Competition With Fluorescein Labeled MLL-derived Peptide | Fluorescence polarization, fluorescein-MLL peptide displacement from menin | FP activity change, % at 61.4 µM | 290,000 tested, under 10 active; inconclusive = falling polarisation curve, or a change in total fluorescence; inactive = total fluorescence flat and polarisation flat or rising; no compound was filed as active; the % refers to the polarisation; negative = inhibition;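 further: % of control where 0% means no effect; inhibitors lower the polarisation; unlabelled MLL peptide was the positive control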
Sfp PPTase inh = qHTS Assay for Inhibitors of Bacillus subtilis Sfp phosphopantetheinyl transferase (PPTase) | Biochemical Sfp PPTase activity, qHTS | Potency, µM, for inactives: max response, negative = inhibition, most hits filed as inhibitors | 3.5% of 310,000 active | AID 1490, 2009; active means well fitted inhibition curve with a large enough effect; inconclusive means small, poorly fitted or top-dose-only effect, or another doubt; inactive means no such curve, though single readings can be large or run the other way;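 further: the enzyme is Sfp with the accession as filed and its product quenches rhodamine fluorescence; potency means the concentration at half of the fitted maximal effect; 0% = enzyme reaction without inhibitor and -100% = no enzyme wells; top concentration of the series not given in the record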
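With Hepes-Na pH 7.6 buffer containing 10 mM MgCl2, Sfp (15 nM) modified BHQ-2-YbbR (12.5 uM) using rhodamine-CoA (5 uM). Two reads 30 minutes apart at 525/598 nm yielded each well's rate.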
PINK1 expr mod = A Quantitative High throughput Screen to Identify Chemical Modulators of PINK1 Expression; PINK1 immunofluorescence, high-content cytometry, 24 h; Potency, µM (top dose mostly 76.6 µM), without a hit: at the top dose activation (PINK1 increase), most hits filed as activators; 0.2% of 410,000 active; active = well fitted activation curve with a large enough effect; inconclusive = small, poorly fitted or top-dose-only effect; inactive = flat fitted curve, though single readings scatter; cell line not stated here;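 further: potency means the concentration at half of the fitted maximal effect; % of control where 0% means no effect; nearly all actives have a fitted effect of over 65% in size; a mitochondrial uncoupler was the plate control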
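Readout is PINK1 immunofluorescence, quantified alongside mitochondrial, cell and nuclear markers by laser-scanning microplate cytometry. Cells from a stable line were exposed to compound titrations (5 concentrations) for 24 hours, with CCCP controls.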
gsp antagonist = qHTS for Antagonists of gsp, the Etiologic Mutation Responsible for Fibrous Dysplasia/McCune-Albright Syndrome: qHTS; Potency, µM (top dose mostly 76.9 µM), for inactives: top-dose activity change, negative = inhibition, usual class: inhibitors; gsp-mutant cells, cAMP HTRF, 30 min; control for the full effect not named in the record; 0.4% of 340,000 active; AID 624288, 2012; active = falling curve of any shape with a large fitted effect; inconclusive = falling curve, mostly with a smaller effect; inactive = flat or rising curve; cell line not stated here;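 further: intracellular cAMP measured with PDE inhibitor Ro 20-1724 present during compound exposure; potency means the concentration at half of the fitted maximal effect; on the % scale 0 is the no-effect control and ±100 the full control effect; nearly all actives have a fitted effect of over 65% in size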
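Measurement of cellular cAMP by homogeneous time-resolved fluorescence following a 30 min compound exposure at 37C. The PDE inhibitor […] was present throughout; the assay buffer was DPBS with 0.05% BSA and 0.005% Tween 20.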
gsp ag = qHTS for Agonist of gsp, the Etiologic Mutation Responsible for Fibrous Dysplasia/McCune-Albright Syndrome: qHTS | gsp mutant cells, cAMP HTRF, 30 min; control for the full effect not named in the record | Potency, µM (series often up to 76.9 µM), inactives show at the highest dose activation (cAMP increase), most hits filed as activators | 0.13% of 340,000 active; active = well fitted activation curve with a large enough effect; inconclusive = small, poorly fitted or top-dose-only effect, or another doubt; inactive = no such curve, though single readings can be large or run the other way; cell line not stated here;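 further: phosphodiesterase inhibitor Ro 20-1724 added with compounds to block cAMP breakdown; potency means the concentration at half of the fitted maximal effect; nearly all actives have a fitted effect of over 60% in size; about a fifth of the inactives were tested at one dose only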
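Cells stably selected in G418 were plated at 2000/well, grown 16-24 hr, then given compounds in DMSO with the PDE inhibitor […] (300 uM solution added) for 30 min at 37C; cAMP was read by HTRF.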
D2 ag = Beta-Arrestin HTS for Positive Allosteric Modulators of the Human D2 Dopamine Receptor: Agonists | activation, % (test concentration not listed) | DiscoveRx PathHunter D2 beta-arrestin, luminescence, 90 min; 100% = 57 uM dopamine signal | 0.084% of 360,000 active | D(2) dopamine receptor (Homo sapiens), P14416; in the data active = activation above about 40%; inconclusive = about 15% to 40%; inactive = below about 15%; further: compound concentration not given in the record; the text of the record calls up to 30% inactive
Target sequence (P14416 whole entry, looked up): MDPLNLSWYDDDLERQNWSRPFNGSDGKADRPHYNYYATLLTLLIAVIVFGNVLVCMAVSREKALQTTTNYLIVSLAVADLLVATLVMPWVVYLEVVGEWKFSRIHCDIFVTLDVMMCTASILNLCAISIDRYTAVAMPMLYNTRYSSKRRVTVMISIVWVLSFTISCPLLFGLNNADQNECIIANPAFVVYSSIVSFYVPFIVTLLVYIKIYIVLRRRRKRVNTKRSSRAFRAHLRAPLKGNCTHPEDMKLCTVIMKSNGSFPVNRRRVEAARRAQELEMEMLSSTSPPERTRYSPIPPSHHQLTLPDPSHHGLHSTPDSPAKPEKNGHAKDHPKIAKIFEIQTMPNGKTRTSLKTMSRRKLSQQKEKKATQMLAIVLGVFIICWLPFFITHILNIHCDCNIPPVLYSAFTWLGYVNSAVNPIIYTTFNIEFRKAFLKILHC
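DiscoveRx PathHunter D2 beta-arrestin cells (2,100/well) attached overnight, then compound-stimulated 90 min at 37 C in HBSS/10 mM HEPES/0.1% Tween-20 buffer; beta-galactosidase complementation read by luminescence after 1 h at ambient temperature. Dopamine 57 uM final (EC100) as control.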
Starred values were filed as active, the others as inactive; ? = inconclusive; nt = not tested or not shown; [ ] = another dose, or the depositor's remark.

SMILES	ClpP mod	Menin MLL FP FL	Sfp PPTase inh	PINK1 expr mod	gsp antagonist	gsp ag	D2 ag
CN(C(=O)c1cccc(NC(=O)Cc2ccc(NC(=O)C3CCN(S(=O)(=O)c4cccc([N+](=O)[O-])c4)CC3)cc2)c1)C1CCCC1	-4.6%	nt	nt	0.2%	3%	nt	0.3
CCOC(=O)NC(NC(=S)Nc1ccccc1[N+](=O)[O-])C(Cl)(Cl)Cl (configuration not stated)	-1.0%	0.1	3%	-1.7%[38.3 µM]	1%	-61%[inhibitor]	-3.9
Cc1ccc(C(=O)N2CCOCC2)c(F)c1F	-3.0%	1.7	-5%	3.1%	-3%	-66%[inhibitor]	-2.7
O=C(NNC(=O)C12CC3CC(CC(C3)C1)C2)c1ccccc1[N+](=O)[O-]	nt	0.3	7%	2.5%	-2%	5%	2.7
CCC1COC(c2cccn2Cc2ccc(Cl)cc2)=N1 (configuration not stated)	nt	5.0	7%	15%	-21%	5%[15.4 µM]	-3.6
Cc1nc2cc(NC(=O)CSc3nc4c(C)cccc4cc3C#N)ccc2s1	-5.8%	14	-9%	?	15%	?	-0.2
O=c1c2sccc2nc(SCc2ccc([N+](=O)[O-])cc2)n1Cc1ccccn1	-0.7%	5.0	-3%	3.1%	?	-27%	-3.1
Cc1ccc(C2CCN(C(=O)Nc3ccc(F)cc3)C2)cc1 (configuration not stated)	nt	-4.9	-2%	0.9%	-4%	?	1.8
COc1cc(OC)cc(-c2c(C#Cc3ccsc3)c3cc(-c4ccc(CN5CCOCC5)cc4)ccc3n2C)c1	3.6%	nt	nt	0.6%	3%	9%	-0.4
CCn1c(C)nc2cc(C(=O)NNC(=S)Nc3ccc(F)cc3)ccc21	7.2%	3.2	15%	1.9%	-3%	?	-7.0
Oc1ccc(C[C@H]2CNC(=S)N2CC2CCCN2C[C@H](Cc2ccc(O)cc2)N2C[C@H](Cc3ccc(O)cc3)N(CC3CCCCC3)C2=S)cc1 (some centres not stated)	-2.6%	nt	nt	-1.5%	-21%	nt	4.0
CCOC(=O)c1ccc(S(=O)(=O)NNc2ccc(C(F)(F)F)cn2)cc1	0.6%	nt	nt	-0.2%	15%	18%	-5.3
O=C(C[n+]1cccc(CNC(=O)c2ccc(OC(F)F)cc2)c1)Nc1cc(C(F)(F)F)ccc1Cl	-3.0%	2.5	-4%	3.4%	12%	-11%	-2.1
COc1ccc(N2C(=O)C(O)C2c2ccc(C)cc2)cc1 (configuration not stated)	-3.6%	4.4	-4%	-2.1%	-4%	-2%	-2.2
CCOC(=O)Cn1c(=O)c(F)cn(Cc2ccc(OC)c([N+](=O)[O-])c2)c1=O	-0.9%	-4.1	2%	-0.2%	3%	-6%[15.4 µM]	0.0
CCN(CC(=O)NCc1ccc(F)cc1)C(=O)c1ccc(Cl)cc1	2.3%	-6.3	11%	1.9%	3%	-25%	2.8
CCCSc1ccc([C@@H]2[C@H]3C(=O)N(CC)C(=O)[C@H]3[C@]3(C(=O)OC)CCCN23)cc1OC	0.2%	nt	nt	1.3%	-6%	nt	-1.8
NS(=O)(=O)c1cccc(NC(=O)COC(=O)/C=C/c2nc3ccccc3s2)c1	nt	nt	nt	1.2%	-1%	-11%	-3.1
CCn1c(/C=C/c2c(C)[nH]c3ccccc23)nc2ccccc2c1=O	-1.6%	11	13%	?	3%	-26%	-2.9
COc1ccc(C(=O)CSc2nnc(-c3cccs3)n2-c2ccccc2)cc1	-3.5%	0.7	6%	9.6%	-1%	?	-2.2
CCOc1nc(N2CCOCC2)nc(C)c1[N+](=O)[O-]	-0.1%	4.1	6%	0.0%	2%	?	-4.1
Cc1cccc(C(=O)NNC(=S)NC(=O)c2ccccc2)c1	-0.7%	nt	nt	0.2%	-4%	-11%[15.4 µM]	-2.7
Cc1ccc(NC(=O)CSc2nc3ccccc3c(=O)n2Cc2cccs2)cc1	-4.8%	3.2	14%	5.8%	1%	0%	-3.4
CCOc1ccc(S(=O)(=O)N(C)CC(=O)N2CCN(CC)CC2)cc1	-0.8%	-1.4	-7%	1.3%	-12%	13%[15.4 µM]	-4.0
Cc1ccc([N+](=O)[O-])cc1NC(=O)Cc1cccs1	nt	3.4	-15%	6.2%	-1%	13%[15.4 µM]	-4.5
CCc1ccccc1NC1=NCC(=O)N1C1CCCCC1	0.9%	-1.0	10%	0.9%	-18%	-21%	-2.8
CSCCC1NC(=O)N(CC(=O)Nc2ccc(N3CCCCC3)cc2)C1=O (configuration not stated)	-0.2%	-1.6	-18%	1.1%	-12%	4%	-0.9
O=C(COc1ccc(Br)cc1CNCCCN1CCOCC1)Nc1ccccc1	0.3%	8.0	-6%	3.2%	12%	0%	-1.4
COC(=O)c1ccccc1NC(=O)CSc1nc2ccccc2c(=O)[nH]1	-3.1%	1.6	-15%	-0.4%	24%	-65%[inhibitor]	0.6
CCC(C)[C@H](NC(=O)N1CCCCCC1)C(=O)OC (some centres not stated)	-1.5%	1.9	2%	1.8%	-5%	19%	-6.4
Cc1cccnc1NC(=S)Nc1ncccc1C	nt	0.0	-21%	1.4%	9%	-1%	-0.6
COc1ccc(CCNC2CCN(C)CC2)cc1OC	0.1%	2.3	7%	-0.1%	13%	23%	0.3
Clc1cc(Br)ccc1OCCN1CCOCC1	-0.6%	8.3	?	-1.2%	12%	8%	-1.6
O=C(COc1ccc(S(=O)(=O)N2CCOCC2)cc1)NC1CCCCC1	0.1%	nt	nt	0.2%	-4%	4%	-4.8
CC12CC3CC(C)(C1)CC(NCc1ccncc1)(C3)C2	0.0%	-2.8	9%	-1.4%	5%	0%[15.4 µM]	-0.6
CCOc1ccc(NC(=O)COc2cccc3c2CCN(Cc2cccnc2)C3=O)cc1	1.8%	nt	2%	0.6%	?	-10%	-2.9
CSc1nnc2c(n1)c(C)nn2-c1ccc(C)cc1	-8.4%	-2.4	-13%	22%	8%	-29%	0.4
CCOC(=O)c1cc(-c2nnc(SCC(=O)Nc3ccc(F)cc3)o2)c(C)nc1C	-1.2%	3.4	?	-1.4%	-1%	8%	0.2
Cn1c(=O)c(C(N)=S)cn(-c2ccccc2)c1=O	1.9%	2.5	16%	0.2%	-4%	?	-0.5
CC(=O)OC[C@@H]1CN(Cc2ccccc2)C[C@H](n2cnc3c(NC4CCCC4)ncnc32)O1	0.5%	nt	nt	1.7%	nt	nt	-2.4
COC(=O)c1cc(NC(=O)CN2C(=O)CSC2=O)ccc1Cl	-1.7%	-0.2	7%	-0.5%	4%	-31%	-0.4
COc1ccccc1N1CCN(C(=O)CSc2ccc3c(C)cc(C)nc3n2)CC1	-11%	2.8	7%	-0.2%	-16%	-6%	-1.5
CN1CCN(C(=O)C2=C[C@H](c3ccc(C(F)(F)F)cc3)C[C@H](OCCCCO)O2)CC1	-2.5%	nt	nt	-1.3%	7%	-23%	0.9
Cc1ccc(F)cc1CNC(=O)C1CCC(=O)N(CCc2ccccc2)C1 (configuration not stated)	0.1%	0.9	17%	1.6%	3%	23%	-0.4
CCOc1ccccc1N=NC1C(=O)N(C(N)=S)N=C1C (configuration not stated)	0.3%	?	-25%	1.9%	?	?	-4.6
Cc1ccc(-c2noc(C3CCCN(C(=O)c4ccccc4)C3)n2)o1 (configuration not stated)	-0.5%	5.0	-14%	3.0%[38.3 µM]	-7%	-14%	-2.4
CCC1=NC(c2ccccc2)N(O)C1(C)C (configuration not stated)	-3.0%	-1.0	6%	-1.3%	-6%	-19%	-4.1
CC(C)CC(=O)N1CCN(Cc2ccccc2[N+](=O)[O-])CC1	nt	-1.8	56µM*	-0.7%	-1%	-8%[15.4 µM]	-4.2
CC1C/C(=N\NC(=O)c2ccc([N+](=O)[O-])cc2)CC(C)(C)C1 (configuration not stated)	0.7%	-1.8	79µM*	1.9%	5%	4%	-4.8
COc1ccc(Cl)cc1NC(=O)c1c(-c2ccccc2)noc1C	49%	1.1	20%	2.9%	6%	-32%	-0.5
CCOC(=O)C1CCCN(C(=O)c2ccc3ccccc3c2)CC1 (configuration not stated)	-0.9%	nt	nt	0.2%	nt	nt	-3.0
CCOC(=O)C1=C(C)NC(C)=C(C(=O)OCC)C1C(=O)OCC(=O)NC	0.9%	-0.7	22%	-0.5%	16%	1%[15.4 µM]	-3.6
CC1=C(C(=O)NC2CCCC(C)C2C)C2(CCCCC2)OC1=O (configuration not stated)	-3.2%	0.7	4%	0.0%	0%	-8%	-3.4
Cc1nc(N2CCOCC2)c2c(C)c(C(=O)Nc3ccc(F)cc3Cl)sc2n1	nt	-0.4	0%	-0.1%	11%	2%[15.4 µM]	0.8
COc1cccc(CNC(=O)c2ccc3c(c2)N(C)CCS3)c1OC	4.7%	-0.6	8%	-0.3%	-4%	-9%	-0.1
CCOC(=O)C1(CCc2ccccc2)CCN(C2Cc3ccccc3C2)CC1	nt	-7.9	-5%	?	20%	-14%[15.4 µM]	2.2
Clc1ccc(C2Nc3cccc4cccc(c34)N2)cc1Cl	0.8%	5.3	-24%	0.7%	8%	-33%[inhibitor]	?
CC(=O)NC(Cc1ccc(F)cc1)C(=O)NC1CCN(C(=O)Nc2cccc(C)c2)CC1 (configuration not stated)	nt	-6.2	6%	-0.1%	4%	-12%	2.5
CCN(CC)C(=O)CSc1nc2c(sc(=S)n2-c2ccccc2)c(=O)n1-c1ccccc1OC	nt	6.8	15%	0.5%	?	-57%[inhibitor]	-3.6
